From PubChem
VACV mCherry inh: inhibitors of vaccinia virus infection (mCherry reporter signal) | Vaccinia virus mCherry reporter infection, fluorescence; about a quarter of the inactives have no number | Potency, µM (series often up to 36.5 µM), for inactives: at the highest dose activity change, negative = inhibition, most hits filed as inhibitors | hit rate 0.63% among 310,000; active = well fitted inhibition curve with a large enough effect; inconclusive = small, poorly fitted or top-dose-only effect; inactive = no such curve, though single readings can be large or run the other way; tested in A549 cells; note: nearly all actives have a fitted effect of over 35% in size; inactives centre near -10
VACV Venus inh: vaccinia inhibition (Venus reporter); Vaccinia virus Venus reporter expression, fluorescence; Potency, µM (series often up to 36.5 µM), inactives show top-dose activity change, negative = inhibition, most hits filed as inhibitors; hit rate 0.46% among 330,000; AID 720580; active means well fitted inhibition curve with a large enough effect; inconclusive means small, poorly fitted or top-dose-only effect; inactive means no such curve, though single readings can be large or run the other way; tested in A549 cells; note: nearly all actives have a fitted effect of over 30% in size; inactives centre near -10
Active calls of the source: *; i = inactive; ? = inconclusive; nt = not tested or not shown; [ ] = dose if it differs, or a comment. % is set by controls: 0 for no effect and ±100 for the full control effect; potency is the fitted concentration of half-maximal effect.

| molecule | VACV mCherry inh | VACV Venus inh |
| --- | --- | --- |
| CCC(O)C1CCN(Cc2cn(Cc3ccccc3)nc2-c2cc3ccccc3o2)CC1 (configuration not stated) | -7.4% | -26.8% |
| CCOc1ccccc1-n1nnnc1SCC(=O)N(C)C1CCS(=O)(=O)C1 (configuration not stated) | -2.0% | -9.9% |
| COc1ccccc1C(=O)Nc1cc(Cl)ccc1O | nt | 3.6% |
| O=[N+]([O-])c1ccccc1N(CC1CO1)S(=O)(=O)c1ccccc1 (configuration not stated) | ? | -4.8% |
| CC1(C)CC(C)(O)N(Cc2ccccc2)C(=S)N1 (configuration not stated) | i | -7.8% |
| CCc1cccc(CC)c1NC(=O)C1CCC(CNS(=O)(=O)c2cccc3nsnc23)CC1 (configuration not stated) | -19.0% | -0.4% |
| CC1(C)CC(=O)C2=C(C1)Nc1ccccc1NC2c1ccc([N+](=O)[O-])cc1 (configuration not stated) | -12.9% | 14.8% |
| COc1ccc(OC)c(CCNC(=O)c2ccc3c(c2)N(Cc2ccc(C)cc2)CCS3)c1 | -14.1% | -6.4% |
| CCOc1ccc(NC(=O)NCCc2c(C)nn(C)c2C)cc1 | -13.7% | 7.5% |
| CCCCN(C)CCCNC(=O)c1ccc(N2CCCC2=O)cc1 | -9.8% | -3.2% |
| Cc1cc(NS(=O)(=O)c2ccc(NC(=O)c3cc4cc(Br)ccc4oc3=O)cc2)no1 | -9.7% | -3.7% |
| COC(=O)c1cc(OC)c(OC)cc1NC(=O)c1cccc(C)c1 | i | 0.0% |
| CCc1ccc(NC(=O)C2CCCN2S(=O)(=O)c2ccc3c(c2)CCCC(=O)N3)cc1 (configuration not stated) | -25.9% | -16.6% |
| COc1ccccc1NC(=O)CSc1nc2nc(C)cc(C)c2c(=O)[nH]1 | nt | -1.4% |
| COc1cc(C2C=C(Nc3ccccc3)C(=O)N2c2ccccc2)ccc1O (configuration not stated) | -8.1% | -23.8% |
| CC(C)(C)N(Cc1ccccc1)C(=O)COC(=O)c1cccc([N+](=O)[O-])c1 | ? | -17.8% |
| O=C(/C=C/c1ccccc1)NC(NC(=S)Nc1cc(Cl)ccc1Cl)C(Cl)(Cl)Cl (configuration not stated) | 10µM* | ? |
| COc1cccc(CNC(=O)CCC2CCCN(C(=O)c3ccoc3C)C2)c1 (configuration not stated) | -5.9% | -15.3% |
| CCOc1ccc(CCNC(=O)c2cccc(-n3c(C)nc4cccnc43)c2)cc1 | i | -20.3% |
| CC(C)CCn1c(O)c(N=NC(=O)c2ccco2)c2ccccc21 | -18.3% | -10.8% |
| Clc1ccc(-c2noc3ncnc(N4CCCCC4)c23)cc1 | -3.1% | 0.1% |
| COc1cc(OC)cc(C(=O)N[C@H](C(=O)OCc2cc(=O)oc3cc(C)ccc23)C(C)C)c1 | 31.7%[activator] | -8.1% |
| Cn1c(=O)c2c(ncn2Cc2nnc(N)s2)n(C)c1=O | -5.3% | 4.1% |
| CC(=O)NC(=S)Nc1ccc(NC(=O)c2cccnc2Cl)cc1 | -17.4% | -19.6% |
| COc1cccc(CNC(=O)COC(=O)C2CCN(c3ccc(C(F)(F)F)cn3)CC2)c1 | -14.6% | -4.1% |
| CCN(Cc1cc(OC)c(OC)c(OC)c1)C(=S)Nc1cccc(SC)c1 | ? | -18.6% |
| O=C(Nc1ccc(F)cc1)[C@H](CSCc1ccccc1)N1Cc2ccccc2C1=O | -15.7% | -12.1% |
| CC(C)(C)c1sc(N)nc1-c1ccccc1 | i | -18.1% |
| O=c1[nH]c2ccc(S(=O)(=O)N3CCN(c4ccc(F)cc4)CC3)cc2o1 | -13.3% | -9.5% |
| Cc1ccc(C(c2sc3nc(C)nn3c2O)N2CCN(c3ccc(F)cc3)CC2)cc1 (configuration not stated) | ? | -17.8% |
| Cc1ccc(Nc2ccc3cc(S(=O)(=O)N4CCCCC4)ccc3n2)cc1F | -22.9% | -19.8% |
| O=C(O)C1Cc2ccccc2CN1C(=O)c1ccccc1 (configuration not stated) | -9.9% | 0.5% |
| CCCC(C)NC(=O)c1nc(-c2ccccc2)n(-c2ccccc2)n1 (configuration not stated) | nt | -17.7% |
| CCOC(=O)c1ccc(NC(=O)CCc2nc(-c3ccccc3)no2)cc1 | -24.4% | -27.6% |
| COc1ccc([C@H]2CC(=O)C=C(c3ccccc3C(F)(F)F)C2)cc1 | i | -14.8% |
| Cn1nnnc1SCC(=O)Nc1cccc([N+](=O)[O-])c1 | i | -5.0% |
| NC(=O)Cn1cc(/C=N\NS(=O)(=O)c2cccc([N+](=O)[O-])c2)c2ccccc21 | -14.4% | -7.0% |
| CCCCn1nnnc1SCC(=O)Nc1ccc(C)cc1 | -17.3% | -13.3% |
| CC(=O)OC(/C(O)=C(\C#N)c1nc2ccccc2[nH]1)c1ccccc1 (configuration not stated) | ? | -29.0% |
| CC(=O)c1ccc(NC(=O)CSC(C)C)cc1 | -11.0% | -4.9% |
| CC(C)(C)n1nnnc1C(c1cccs1)N1CCC2(CC1)C(=O)NCN2c1ccccc1 (configuration not stated) | 18.5% | -1.0% |
| CC(=O)NC1C(OCc2ccccc2)OC2COC(c3ccccc3)OC2C1OCC(=O)O (configuration not stated) | -2.1% | -1.1% |
| O=C(O)CC(NCc1ccco1)C(=O)OCCc1ccccc1 (configuration not stated) | nt | -9.3% |
| O=C1Cc2cc(NS(=O)(=O)c3ccc([N+](=O)[O-])cc3)cc3c2N1CCC3 | 10µM* | ? |
| CCC(=O)N/N=c1/sc2ccccc2n1C | -21.5% | -19.8% |
| O=C(NCc1ccccc1)C1CC(=O)N(c2ccc(OCC(=O)N3CCOCC3)cc2)C1 (configuration not stated) | -3.0% | 8.8% |
| COc1ccc(C(=O)N2CCC3(CC2)OCCO3)cc1 | -22.7% | -18.4% |
| COC(=O)c1ccccc1NC(=O)Cn1cnc2ccc(S(=O)(=O)N3CCC(C)CC3)cc2c1=O | -5.7% | -12.0% |
| COc1ccc(-c2cc(-c3ccc4c(c3)NC(=O)CO4)nc3c2COc2ccc(C)cc2-3)cc1 | -11.8% | 0.8% |
| CCC1=C(OC(=O)N(CC)CC)N2C(=O)OC(=NCC3CC3)[C@]2(Cc2ccccc2)[C@H]2C1=CC[C@H]1C(=O)N(CC)C(=O)[C@H]12 | -11.9% | ? |
| Cc1ccc(-c2nn(-c3ccccc3)cc2CNCc2ccccc2)cc1 | ? | ? |
| O=C1CC(=O)Nc2ccccc2N1 | i | -9.3% |
| COc1ccc(-c2cc(C(C)=O)c(C)n2CCC(=O)Nc2cccc(C)c2C)cc1 | i | -4.4% |
| CC(=O)Nc1ccc(S(=O)(=O)/N=C2\SCCN2S(=O)(=O)c2ccc(NC(C)=O)cc2)cc1 | -15.9% | -13.9% |
| CCN(CC)C(=O)c1nc[nH]c1C(=O)N1CCc2ccccc2C1 | -10.7% | -7.5% |
| COC(=O)c1ccc(CN2[C@H](C(=O)OC)C[C@@]3(O)[C@@H](O)[C@@H](O)[C@@H](O)C[C@@H]23)cc1 | i | -2.0% |
| Cc1ccc2c(c1)C(Cc1ccccc1F)C(=O)N2 (configuration not stated) | 9.2% | 11.8% |
| Cc1ccc(S(=O)(=O)N(CC(=O)N/N=C/c2cccc(C)c2)c2cccc3cccnc23)cc1 | nt | 10.2% |
| CC(C)(C)OC(=O)CNC(=O)c1nc[nH]c1C(=O)NCC(=O)OC(C)(C)C | i | -20.0% |
| CC(CS(=O)(=O)c1cccc2cccnc12)N1CCCCC1 (configuration not stated) | nt | -14.4% |

(continued)
| molecule | VACV mCherry inh | VACV Venus inh |
| --- | --- | --- |
| Cc1cc(C)nc(SC(C)C(=O)O)n1 (configuration not stated) | -10.1% | -3.2% |
| CC(=O)C(c1ccccc1)C(c1ccccc1)C(C)[N+](=O)[O-] (configuration not stated) | -5.5% | -12.8% |
| Cc1nc2nc(SCC(=O)N(C)Cc3ccccc3)nn2c(C)c1Cc1ccccc1Cl | 2.9% | -1.5% |
| CCOc1ccc(S(=O)(=O)N2CCCC(C(=O)NCCN3CCOCC3)C2)cc1Cl (configuration not stated) | -22.3% | -16.2% |
| COc1ccc(NC(=O)c2cc(C)nc3ccccc23)c(OC)c1 | i | -0.8% |
| O=C1NCN(c2ccccc2)C12CCN(C(c1ccccc1OC(F)(F)F)c1nnnn1C1CCCC1)CC2 (configuration not stated) | 8.0% | -11.9% |
| CC1=C(C(=O)OCC2CCCCC2)C(c2ccc(Cl)cc2)CC(=O)N1 (configuration not stated) | -19.0% | -7.8% |
| CC(C)(C)C1CCc2c(sc(NC(=O)c3cc(-c4ccc(F)cc4)on3)c2C#N)C1 (configuration not stated) | -3.6% | -1.7% |
| C1=Cc2ccccc2/C1=C\c1ccc2c(c1)OCO2 | -14.8% | -14.4% |
| Cc1cc(=O)c2cc(Cl)ccc2[nH]1 | -11.3% | -15.2% |
| COc1ccc(CNc2nc(SCC(=O)NCc3ccco3)nc3ccccc23)cc1 | ? | -21.4% |
| COCCNC(=O)C(c1ccc(C)o1)N(Cc1ccccc1)C(=O)Cn1nnc2ccccc21 (configuration not stated) | i | -14.1% |
| COCc1cc(=O)n2[nH]c(SCc3ccccc3)nc2n1 | nt | -6.1% |
| Cc1ccc2cc(CN(C(=O)c3ccc4c(c3)OCO4)C3CC3)c(N(C)C)nc2c1 | -7.8% | 13.0% |
| CCCC(=O)OCC(=O)Nc1ccccc1C#N | 8.7% | 2.6% |
| COc1ccc(C)c2sc(N(CCCN(C)C)C(=O)c3ccc(S(=O)(=O)N4CCc5ccccc5C4)cc3)nc12 | ? | ? |
| CCOc1cc(-c2nc3c(c(CC)nn3-c3ccccc3)c3cc(OC)c(OC)cc23)ccc1O | -3.8% | 1.7% |
| COc1cccc(N2CCN(S(=O)(=O)c3ccc(-n4cnnn4)cc3)CC2)c1 | -11.4%[7.34 µM] | -12.1% |
| Cc1cc(C(=O)OCC(=O)Nc2sc3c(c2C#N)CCC(C)C3)c2ccccc2n1 (configuration not stated) | -25.6% | -20.0% |
| CCN(CC)c1ccc(SS(=O)(=O)O)cc1 | nt | 14.8% |
| Cc1cccc(COc2ncnc3nc[nH]c23)c1 | i | -13.8% |
| Cc1cc(C)n(Cc2ccc(Cl)cc2Cl)c(=O)c1S(=O)(=O)c1ccccc1 | nt | -2.3% |
| Cc1ccc(/C=N/n2c(-c3ccco3)n[nH]c2=S)s1 | i | -9.5% |
| COc1cc(/C=C2\CC/C(=C\c3cc(OC)c(OC)c(OC)c3)C2=O)cc(OC)c1OC | -8.9% | -16.8% |
| Cc1cc(=O)cc(C)n1-c1ccc(F)cc1F | i | -2.3% |
| Cc1cc(OCC(=O)O/N=C(\N)c2ccccc2)cc(C)c1Cl | i | 0.0% |
| O=C(CSCc1cnn(-c2ccccc2)c1-n1cccc1)NCCN1CCOCC1 | nt | -1.3% |
| COc1ccc(Br)cc1S(=O)(=O)N(CC(=O)N1CCN(C)CC1)c1ccccc1 | -10.6% | -14.0% |
| N#Cc1cn(CCOc2ccccc2F)c2ccccc12 | -15.9% | -8.3% |
| O=C(NC(=S)Nc1ccc(N2CCOCC2)c(Cl)c1)c1cncc(Br)c1 | -26.5% | -13.7% |
| Cc1ccc(N2CC(NC(=O)Cc3ccc(F)cc3)CC2=O)cc1 (configuration not stated) | -3.0%[7.34 µM] | -3.8%[7.34 µM] |
| O=NN(CCCl)C(=O)NCC1=C[N+](=O)CC=C1 | 0.6% | 5.4% |
| O=C(NCCCn1ccnc1)c1cc2c(ccc3ccccc32)o1 | -2.3% | -15.4% |
| CCOC(=O)N1CCN(CC(=O)Nc2sc(CC)cc2C(=O)c2ccc(OC)cc2)CC1 | i | ? |
| c1ccc(Cn2nnc3c(N4CCc5ccccc54)ncnc32)cc1 | -3.1% | -12.8% |
| Cc1nnc(SC/C=C/c2ccccc2)n(N)c1=O | i | -4.3% |
| COc1ccc(S(=O)(=O)NNC(=O)C2COc3ccccc3O2)cc1[N+](=O)[O-] (configuration not stated) | i | 6.1% |
| Cc1cc(=O)[nH]c(COc2ccccc2)n1 | nt | -3.7% |
| CC(C)(O)C#Cc1ccc(C(=O)NC2CCCCC2)s1 | -23.7% | -15.7% |
| CSCCC(NS(=O)(=O)c1ccccc1F)C(=O)N1CCCCCCC1 (configuration not stated) | i | -9.1% |
| CC1(C)O[C@@H]2C[C@H]3[C@@H]4CCC5=CC(=O)C=C[C@]5(C)[C@@]4(F)[C@@H](O)C[C@]3(C)[C@]2(C(=O)CO)O1 | -3.8% | -20.1% |
| Cn1cnnc1SCC(=O)NC1CCCCC1 | i | 0.1% |
| COCCNCCOCCOc1cccc(OC)c1 | nt | -2.5% |
| CN1CCc2[nH]c3ccc(Cl)cc3c2C1 | -20.2% | 14.9% |
| CCCCN(CCCC)c1cc(C)nc(-c2ccccc2O)n1 | nt | -10.5% |
| O=C(c1ccco1)N1CCN(S(=O)(=O)c2ccc(Br)s2)CC1 | -14.4% | -15.4% |
| COc1ccccc1N1CCN(S(=O)(=O)c2ccc3c(c2)n(C)c(=O)n3C)CC1 | i | -14.5% |
| CC(Sc1ccc(S(=O)(=O)N2CCCCCC2)cn1)C(N)=O (configuration not stated) | -10.7% | -7.3% |

No new results follow: five of the compounds above.
| molecule | VACV mCherry inh | VACV Venus inh |
| --- | --- | --- |
| CC(CS(=O)(=O)c1cccc2cccnc12)N1CCCCC1 (configuration not stated) | nt | -14.4% |
| Cc1cc(C)nc(SC(C)C(=O)O)n1 (configuration not stated) | -10.1% | -3.2% |
| CC(=O)C(c1ccccc1)C(c1ccccc1)C(C)[N+](=O)[O-] (configuration not stated) | -5.5% | -12.8% |
| Cc1nc2nc(SCC(=O)N(C)Cc3ccccc3)nn2c(C)c1Cc1ccccc1Cl | 2.9% | -1.5% |
| CCOc1ccc(S(=O)(=O)N2CCCC(C(=O)NCCN3CCOCC3)C2)cc1Cl (configuration not stated) | -22.3% | -16.2% |
